Assay outcomes from PubChem.
FGF22 binding: FGF22 (human) thermal shift binding; 340,000 compounds, 1.5% hits; AID 651658; calls only at 9.99 µM; recombinant FGF22 thermal shift, SYPRO orange fluorescence; percent of sucrose octasulfate shift, DMSO zero;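 active = melting point raised past a set limit in the mean and every replicate; three in four hits are not shown here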
Target sequence (Q9HCT0 whole entry, looked up): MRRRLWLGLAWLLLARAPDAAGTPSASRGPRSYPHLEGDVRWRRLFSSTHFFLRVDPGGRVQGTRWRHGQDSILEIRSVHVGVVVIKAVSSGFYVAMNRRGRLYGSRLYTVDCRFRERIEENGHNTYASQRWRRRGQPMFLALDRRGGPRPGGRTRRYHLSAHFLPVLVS
rRNA inh HTS: inhibitors of bacterial rRNA selective over humanized ribosomes; GFP signal change (wild-type ribosome), % (concentration not given with the values); 350,000 compounds, 1.6% hits; E. coli WT GFP vs humanized-ribosome RFP mutants, fluorescence, 24 h; active compounds read low; DMSO median 0, no signal -100; AID 720706;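 active = significant combined selectivity score with lowered wild-type GFP, culture density cut under 30%, mutant RFP and density less affected; inactive = any of these conditions unmet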; note: one replicate is shown; some compounds called inactive have numbers as strong as hits
B2AR ag: human beta-2 adrenergic receptor agonism by FAP. P07550. Am2.2-beta2AR cells, FAP receptor internalization, flow cytometry; reference of the scale not given here. response, % (no concentration beside the values). 340,000 compounds, 0.43% hits. AID 504454;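 active = response above a set limit, near 3 SD of response in nonfluorescent compounds, cut at about 42% in these data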;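 note: stock transfer was 100 nL into about 11 µL; a reference agonist was the positive control; negative values mostly stem from fluorescent compounds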
Target sequence (P07550 whole entry, looked up): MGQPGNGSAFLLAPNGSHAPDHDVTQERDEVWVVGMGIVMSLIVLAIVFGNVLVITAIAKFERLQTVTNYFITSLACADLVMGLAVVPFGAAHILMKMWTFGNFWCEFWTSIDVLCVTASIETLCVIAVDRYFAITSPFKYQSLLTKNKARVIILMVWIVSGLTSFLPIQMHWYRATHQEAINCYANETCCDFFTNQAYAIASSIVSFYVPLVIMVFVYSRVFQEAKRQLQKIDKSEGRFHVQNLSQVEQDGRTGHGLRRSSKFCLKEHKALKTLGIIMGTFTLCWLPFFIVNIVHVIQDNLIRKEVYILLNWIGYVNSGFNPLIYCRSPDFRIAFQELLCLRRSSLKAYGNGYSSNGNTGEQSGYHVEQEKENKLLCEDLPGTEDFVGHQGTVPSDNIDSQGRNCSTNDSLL
E coli growth: E. coli growth inhibition. Escherichia coli growth, OD600, 23 h; active compounds read low. OD600 absorbance (concentration not given with the values). 330,000 compounds, 0.21% hits. AID 1053175;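 active = OD600 absorbance below the run mean of sample wells minus 3.6 SD, in any replicate, cut at about 0.56 in these data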;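 note: stock transfer was 300 nL into about 60 µL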
ALR inh: inhibitors of human sulfhydryl oxidase ALR; P55789; purified ALR, DTT oxidation, H2O2 HRP-luminol luminescence; inhibition, % (test concentration not listed); 290,000 compounds, 3.8% hits;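 active = mean and each replicate at 75% or more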;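 note: stock transfer was 7.5 nL into about 7.5 µL; 0% = neutral wells and 100% = wells with inactivated enzyme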
HNF4A DNA FP: change in binding of human HNF4 alpha to DNA. P41235. HNF4a-FITC DNA binding, fluorescence polarization, 1 h. activity change, % at 10 µM. 360,000 compounds, 0.3% hits. AID 1224865; in the data active = activity change above about 30%, passing the limit was not always enough;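 note: controls were the assay level and a saturating level of protein; the project sought stronger binding though the title names inhibitors; some compounds called inactive have numbers as strong as hits; positive values seem to mean higher polarization but the record does not say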
Target sequence (P41235 whole entry, looked up): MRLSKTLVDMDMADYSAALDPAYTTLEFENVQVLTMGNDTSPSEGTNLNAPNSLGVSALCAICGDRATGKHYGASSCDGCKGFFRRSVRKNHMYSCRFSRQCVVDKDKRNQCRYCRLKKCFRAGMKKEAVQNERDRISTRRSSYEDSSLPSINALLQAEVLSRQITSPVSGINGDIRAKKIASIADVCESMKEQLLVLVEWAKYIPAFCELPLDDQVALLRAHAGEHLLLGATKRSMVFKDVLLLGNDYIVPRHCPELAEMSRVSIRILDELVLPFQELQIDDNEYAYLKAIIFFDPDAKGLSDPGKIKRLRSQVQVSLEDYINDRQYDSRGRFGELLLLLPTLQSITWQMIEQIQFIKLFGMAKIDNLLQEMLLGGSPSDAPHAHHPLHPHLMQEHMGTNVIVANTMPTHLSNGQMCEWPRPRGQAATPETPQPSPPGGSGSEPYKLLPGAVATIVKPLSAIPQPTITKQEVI
UCH37 inh: blocks the human deubiquitinase UCH37. Q9Y5K5. purified proteasome/UCH37, Ub-AMC cleavage fluorescence. inhibition, % (concentration not given with the values). 330,000 compounds, 0.33% hits;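 active = mean of two replicates above 20%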;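 note: 0% = compound-free wells with enzyme and 100% = wells lacking proteasome; stock transfer was 100 nL into about 20 µL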
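Test system – human UCH37 enzyme supplied as purified proteasome complex · Incubation – 30 min preincubation with enzyme, 25 min cleavage at room temperature · Detection – AMC fluorescence from Ub-AMC cleavage, excitation 355 nm, emission 460 nm · Benchmarks – no-proteasome wells (full inhibition) and compound-free wells (no inhibition)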
rRNA inh HTS OD600: also measured in rRNA inh HTS; calls as there; OD600 change, %; measured here: OD600 growth;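 optical density of the mix in the first replicate; 0 = DMSO median and -100 = no signal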
rRNA inh HTS RFP: recorded beside rRNA inh HTS, whose call it bears; RFP signal change, %; measured here: RFP humanized mutant strains;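 first replicate; 0 = DMSO median and -100 = no signal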
Starred values were filed as active, the others as inactive; i = inactive; . = not tested or not shown; & = joins results of further samples. A portion of the library; count on the stated rates, not on these rows.

Compound,FGF22 binding,rRNA inh HTS,rRNA inh HTS OD600,rRNA inh HTS RFP,B2AR ag,E coli growth,ALR inh,HNF4A DNA FP,UCH37 inh
CN(c1ncc(C(F)(F)F)cc1Cl)N1C(=O)c2cccc([N+](=O)[O-])c2C1=O,i,1,3,-1.3,-7,0.71,-5,1.9,0.3
Nc1cc(S(=O)(=O)N2CCOCC2)ccc1N1CCOCC1,i,6,3,-1.2,8,0.67,3,-0.4,2.3
COc1ccc(C(C)=O)cc1CN1C(=O)NC2(CCCCCCC2)C1=O,i,-4,-10,-3.6,-4,0.7,5,-0.8,0.4
Cc1c(NC(=O)C2(c3ccc(Cl)cc3)CCCC2)c(=O)n(-c2ccccc2)n1C,.,.,.,.,-14,0.7,12,0.8,6.2
O=C(Nc1ccc(N2CCCC2)cc1)c1cc(Cl)ccc1Cl,i,18,23,3.8,73*,0.71,-2,14,3.1
COc1ccc(/C=C2\SC(N)=NC2=O)cc1Br,i,-12,-10,0.4,4,0.61,-12,9.2,2.0
O=C(CCNC(=O)C1CCN(S(=O)(=O)c2ccc(F)cc2)CC1)NCc1ccccc1Cl,i,11,16,1.8,-1,0.73,-22,0.8,2.1
COc1ccc(C2(c3ccc(OC)cc3)NC(=O)N(CC(=O)Nc3ccc(OC(F)F)cc3)C2=O)cc1,i,-3,-4,4.3,11,0.69,-13,3.7,0.5
Cc1ccccc1OCCn1c(=S)[nH]c2ccccc21,i,-8,-3,1.0,-15,0.72,11,-6.2,4.6
COCCCNCCCCOc1c(Cl)cc(C)cc1Br,.,3,-9,-0.2,-2,0.66,-21,0.9,2.1
CCc1cc(C(=O)Nc2cc(Cl)ccc2N2CCN(C)CC2)sc1C,i,1,10,0.6,-7,0.55,-5,-4.9,1.6
O=C(O)c1ccc(/C=C2\SC(=S)N(NC(=O)c3ccccc3)C2=O)cc1,i,-3,-2,-0.2,15,0.67,19,1.3,17
COc1ccc(-c2cc(C#N)nc(NN)n2)cc1,i,6,6,14,-2,0.61,0,4.5,8.8
CCc1noc(C)c1C(=O)Nc1ccccc1N1CCOCC1,i,1,0,-0.4,3,0.71,-8,2.2,1.9
O=C(NCC1COc2ccccc2O1)c1cccs1 (stereo not drawn),i,2,9,-1.6,-2,0.68,0,-7.7,0.9

Copied from the entries so far for reference:
Compound,FGF22 binding,rRNA inh HTS,rRNA inh HTS OD600,rRNA inh HTS RFP,B2AR ag,E coli growth,ALR inh,HNF4A DNA FP,UCH37 inh
CN(c1ncc(C(F)(F)F)cc1Cl)N1C(=O)c2cccc([N+](=O)[O-])c2C1=O,i,1,3,-1.3,-7,0.71,-5,1.9,0.3
Nc1cc(S(=O)(=O)N2CCOCC2)ccc1N1CCOCC1,i,6,3,-1.2,8,0.67,3,-0.4,2.3
COc1ccc(C(C)=O)cc1CN1C(=O)NC2(CCCCCCC2)C1=O,i,-4,-10,-3.6,-4,0.7,5,-0.8,0.4
Cc1c(NC(=O)C2(c3ccc(Cl)cc3)CCCC2)c(=O)n(-c2ccccc2)n1C,.,.,.,.,-14,0.7,12,0.8,6.2
O=C(Nc1ccc(N2CCCC2)cc1)c1cc(Cl)ccc1Cl,i,18,23,3.8,73*,0.71,-2,14,3.1
COc1ccc(/C=C2\SC(N)=NC2=O)cc1Br,i,-12,-10,0.4,4,0.61,-12,9.2,2.0

Going on with the list:
Compound,FGF22 binding,rRNA inh HTS,rRNA inh HTS OD600,rRNA inh HTS RFP,B2AR ag,E coli growth,ALR inh,HNF4A DNA FP,UCH37 inh
COC(=O)c1ccc(NC(=O)c2ccc3c(c2)C(=O)N(Cc2cccnc2)C3=O)cc1,i,3,11,-2.4,-4,0.69,2,-0.5,3.9
CCCCN(C)Cc1c(C(=O)N2CCc3ccccc3C2)nc2ccc(Cl)cn12,i,-17,-13,-1.0,-11,0.64,3,-3.1,0.2
CCOC(=O)C1(C(N)=O)OC1(c1ccc(Cl)cc1)c1ccccc1Cl (stereo not drawn),i,-19*,-25*,4.5*,9,0.69,.,1.8,2.3
O=C(O)c1ccccc1C(=O)OCCc1cc2ccccc2c(=O)o1,i,8,6,-0.6,0,0.71,-3,0.7,5.1
O=c1c2ccccc2nc(-c2ccccc2)n1O,i,-14,-22,-6.0,-1,0.6,-3,-2.9,-1.0
Cc1n[nH]c(=O)n1-c1ccc(C(C)C)cc1,.,1,5,-2.6,-2,0.69,28,0.7,3.4
CC(C)(C)C(=O)CC1(O)C(=O)N(Cc2ccc(Cl)cc2)c2ccccc21 (stereo not drawn),.,.,.,.,54*,0.7,-8,-2.9,3.0
Cc1nn(-c2ccccc2)c(/N=C/c2ccccc2O)c1-c1ccccc1,.,.,.,.,7,.,0,2.1,.
O=C(CN1CCN(c2ccccc2F)CC1)NC(=O)NC1CCCCC1,i,-34,-41,-8.8,-4,0.66,-1,2.6,1.3
Nc1cccc(-n2cccc2)c1,i,18,22,6.5,-4,0.59,-10,1.8,3.3
COc1cccc(-c2ncc3ccccc3c2COC(=O)N2CCOCC2)c1,i,-17,-9,3.2,4,0.65,4,-4.0,-0.4
Nc1c(C(=O)Nc2ccc(Cl)c(C(=O)O)c2)sc2nc3c(cc12)CCCC3,i,-3,2,-0.1,2,0.7,59,-5.6,-34
CCc1ccc(NC(=S)N(CCN2CCOCC2)Cc2ccccc2F)cc1,i,-24,-16,-5.5,1,0.69,1,-4.1,0.3
O=C(O)c1ccc2nc(C(F)(F)F)[nH]c2c1,.,.,.,.,8,0.75,-8,-0.1,-0.8
O=C(COC(=O)c1ccccc1SCC(=O)N1CCCC1)Nc1ccccc1,.,-6,-5,1.4,1,0.6,7,-2.2,-10

Compound,FGF22 binding,rRNA inh HTS,rRNA inh HTS OD600,rRNA inh HTS RFP,B2AR ag,E coli growth,ALR inh,HNF4A DNA FP,UCH37 inh
O=C(Nc1ccc2c(c1)OCO2)[C@@H]1CCCN1S(=O)(=O)c1cccc2cccnc12,i,6,-2,-4.7,2,.,-25,-1.2,2.7
CCOC(=O)C1CSC(CC(=O)Nc2ccc(Cl)cc2)C(=O)N1 (stereo not drawn),.,.,.,.,41,0.59,-10,0.3,1.4
CC1=CC(C)(C)[N+](C)=CN1c1ccccc1,i,15,15,-5.5,4,0.6,-2,-0.1,0.3
C[C@@H]1CN([C@H](C)CO)C(=O)c2cc(NC(=O)Nc3ccc(C(F)(F)F)cc3)ccc2O[C@H]1CN(C)C(=O)Nc1ccc(F)cc1,i,-4&2,-5&1,-0.7&-0.4,1,.,.,-0.2,1.6
CC(C)(C)C(=O)Cn1nc(Cl)nc1Cl,i,2,1,-1.8,0,0.7,-4,1.2,3.2
COC(=O)C1=C(C)N(CCc2ccc(OC)cc2)C(=O)C1,.,.,.,.,18,0.74,.,1.9,3.3
CC(C)CCSc1nc2c(c(=O)[nH]c(=O)n2C)n1CCCc1ccccc1,i,3,12,0.3,-4,0.77,-10,3.5,2.4
O=C(Cc1ccccc1)NC(CSSCC(NC(=O)Cc1ccccc1)C(=O)O)C(=O)O (stereo not drawn),.,7,13,2.0,-5,0.73,.,0.3,1.6
CC(Sc1nnc(N)s1)C(=O)NNC(=O)c1cccc(Cl)c1 (stereo not drawn),.,8,6,0.5,5,0.7,.,-1.2,0.5
CCOC(=O)CSc1nnc(CSc2nc3sc4c(c3c(=O)[nH]2)CCCC4)n1-c1ccccc1,.,.,.,.,16,0.67,52,34*,-2.5
O=C(OCC(=O)N1CCc2ccccc21)c1ccc[n+]([O-])c1,.,.,.,.,-5,0.68,-11,-0.1,4.1
O=C(c1cccs1)N1N=C(c2ccccc2)CC1c1ccccc1O (stereo not drawn),i,-5,-6,4.5,-10,0.68,-4,2.1,-41
COc1ccc(NC(=O)CN(C)C(=O)c2c(-c3ccccc3Cl)noc2C)cc1,i,-2,2,-0.3,-10,0.69,-9,-5.3,3.8
CCCCCCC(=O)N1CCN(c2cc3c(cc2F)c(=O)c(C(=O)O)cn3CC)CC1,.,.,.,.,6,.,-8,-0.1,-57
CN1C2CCC1CC(NC(=O)CSc1ccc(C(C)(C)C)cc1)C2 (stereo not drawn),i,-5,-2,-2.2,4,0.63,-6,-5.9,1.7

Compound,FGF22 binding,rRNA inh HTS,rRNA inh HTS OD600,rRNA inh HTS RFP,B2AR ag,E coli growth,ALR inh,HNF4A DNA FP,UCH37 inh
COc1ccc(C(CNC(=O)CN2C(=O)NC3(CC(C)CC(C)(C)C3)C2=O)N2CCOCC2)cc1 (stereo not drawn),.,.,.,.,-3,0.72,-2,6.9,4.9
Cn1c(CNC(=O)C2CCCCC2)cc2ccccc21,i,2,-1,3.7,-8,0.71,-9,3.8,3.1
Cc1cc(S(=O)(=O)NCC(C)C)ccc1OCC(=O)NCc1ccccn1,.,.,.,.,0,0.72,3,3.6,4.7
CSc1nc(C)c(CCOC(=O)c2ccccc2)c(=O)[nH]1,.,.,.,.,-6,0.72,-2,-0.7,3.1
COc1ccc(S(=O)(=O)Nc2noc3ccccc23)cc1,i,13,-2,-0.5,-7,0.68,-12,0.9,5.0
COc1ccc(CCNC(=O)c2cnc3ccccc3n2)cc1,i,-18,-10,-1.7,4,0.69,-8,-0.8,0.8
COc1ccc(-c2nn(-c3ccccc3)cc2C(=O)N2CCN(S(=O)(=O)c3ccccc3[N+](=O)[O-])CC2)cc1,i,-2,-9,-2.1,0,0.74,.,1.0,4.1
COc1ccc(N)cc1-n1c(C)ccc1C,i,6,11,4.4,-23,0.67,16,-0.2,-21
Cc1cc(NC(=O)CSc2n[nH]c(=O)[nH]c2=O)ccc1Br,i,5,5,-8.3,-10,0.7,-19,0.8,0.1
O=C(CC(=O)N1CCN(c2ccccn2)CC1)Nc1ccc2nc3n(c(=O)c2c1)CCCCC3,i,2,4,1.2,-10,0.72,.,-0.9,0.9
O=C(CN1CCC(NC(=O)c2ccco2)CC1)Nc1ccccc1[N+](=O)[O-],.,.,.,.,.,0.67,1,.,0.3
O=c1[nH]c(=S)[nH]c(O)c1/C=C1\C=Nc2ccccc21,.,13,19,28,58*,0.69,.,-1.8,4.5
O=C1/C(=C/c2ccccn2)SC(=S)N1NS(=O)(=O)c1ccccc1,.,0,-2,-3.8,-11,0.69,3,-4.8,13
O=C(Nc1nc2ccc(F)cc2s1)c1ccc([N+](=O)[O-])o1,i,-26*,-16*,-8.0*,.,.,.,1.3,.
Cc1c(C)c2ccc(OCC(=O)NCCCn3ccnc3)cc2oc1=O,i,1,12,-1.5,-7,0.69,-2,-0.4,-72

Compound,FGF22 binding,rRNA inh HTS,rRNA inh HTS OD600,rRNA inh HTS RFP,B2AR ag,E coli growth,ALR inh,HNF4A DNA FP,UCH37 inh
O=C(COc1coc(CN2CCc3ccccc32)cc1=O)Nc1cccc(F)c1,i,6,6,1.3,3,0.71,-1,4.8,-1.6
Cc1ccnc(NC(c2cccnc2)c2ccc3cccnc3c2O)c1 (stereo not drawn),i,-30,-27,-19,-3,0.65,4,-3.5,1.0
Cc1nc2ccccn2c1C(=O)NCc1ccc2c(c1)OCO2,.,.,.,.,-9,0.67,2,-1.0,4.5
CCc1cccc(CC)c1NC(=S)NCCc1c(C)[nH]c2ccc(C)cc12,i,3,-6,35,21,0.79,10,7.9,4.7
Cc1cccc(CSc2nc3[nH]ncc3c(=O)[nH]2)c1,i,0,-6,-2.0,-3,0.64,2,-1.5,7.8
Nn1c(SCC(=O)NCCN2C(=O)CSC2=O)nnc1-c1ccc(OC(F)F)cc1,i,0,-2,-1.6,1,0.68,.,0.2,-1.2
